Assay outcomes (PubChem BioAssay)
StopGo RLuc – FMDV 2A StopGo reporter, Renilla signal. HEK cells with a luciferase reporter of 2A StopGo recoding. Potency, µM (titrated, usually from 57.5 µM), for inactives: at the highest dose signal change, negative = less light. 120,000 compounds, 0.32% hits. AID 1745857; active means well fitted falling curve with a large enough effect; inconclusive means small, poorly fitted or top-dose-only effect; inactive means no such curve, though single readings can be large or run the other way; also: nearly all actives have a fitted effect of over 55% in size; overnight with compound
2A firefly – lowers the firefly signal of an FMDV 2A StopGo reporter. HEK cells with a luciferase reporter of 2A StopGo recoding. Potency, µM (highest dose often 57.5 µM), for inactives: top-dose signal change, negative = less light. 120,000 compounds, 0.23% hits; active = well fitted falling curve with a large enough effect; inconclusive = small, poorly fitted or top-dose-only effect; inactive = no such curve, though single readings can be large or run the other way; also: nearly all actives have a fitted effect of over 60% in size; overnight with compound
Active calls of the source: *; u = inconclusive; [ ] = remark or other dose. % is scaled to controls: 0 for no effect and ±100 for the full control effect; potency is read from the fitted curve at half-maximal effect.

Each structure is followed by: 2A firefly, StopGo RLuc
> C/C(=N/Nc1ccc(S(N)(=O)=O)cc1[N+](=O)[O-])c1ccc(C(C)(C)C)cc1
  23%, -15%
> Cc1cccc(N/C(N)=N/c2nc(C)cc(C)n2)c1
  0%, -1%
> O=C(Nc1ccncc1)c1ccc(SC(F)(F)F)cc1
  u, 20µM*
> CC(C)(C)c1ccc(C23OC(=O)C(C)(C)C2OC(=O)C3(C)C)cc1 (stereo not given)
  4%, 7%
> CCOc1ccccc1CNc1ncnc2c1nc1n2CCCC1
  u, u
> Cc1cc(=O)oc2cc(OCC(=O)N3CCc4sccc4C3C)ccc12 (stereo not given)
  44%[activator], 47%[activator]
> COc1cc(-c2noc(CN3CCN(c4ccccc4)CC3)n2)cc(OC)c1OC
  -26%, -13%
> COCCN1C(=O)c2ccccc2N2C(=O)CCC12C(=O)OCc1cc(=O)oc2cc(OC)ccc12 (stereo not given)
  -1%, -2%
> Cc1ccc(SCc2nc(-c3ccc(C(=O)NCc4ccccc4Cl)cc3)oc2C)cc1
  20%, 21%
> Cc1cc2oc(=O)cc(CSc3nc(N)cc(N)n3)c2cc1C(C)C
  4%, 0%
> Cc1ccc(-c2c(-c3cn4ccc(C)cc4n3)c(=O)n(C)c(=O)n2C)cc1
  0%, -2%
> CNC(C)(C)Cc1ccccc1
  -5%, -6%
> C=CCOc1ccc(/C=C(\C#N)c2nc3cc(C)c(C)cc3[nH]2)cc1OC
  32%, 11%
> COc1ccc(C(=O)NCC2(c3ccccc3)CCOCC2)cc1
  114%[activator], 0%
> Cc1cc(C(=O)Nc2nc3ccccc3s2)cc(S(=O)(=O)N(C)C)c1C
  81%[activator], -9%

Retrieved by compound from the entries so far:
Each structure is followed by: 2A firefly, StopGo RLuc
> C/C(=N/Nc1ccc(S(N)(=O)=O)cc1[N+](=O)[O-])c1ccc(C(C)(C)C)cc1
  23%, -15%
> Cc1ccc(-c2c(-c3cn4ccc(C)cc4n3)c(=O)n(C)c(=O)n2C)cc1
  0%, -2%

Later entries:
Each structure is followed by: 2A firefly, StopGo RLuc
> C=CCN(Cc1cccs1)C(=O)Cc1n[nH]c(=O)c2ccccc12
  16%, 6%
> NC1CCN(C2CCS(=O)CC2)CC1 (stereo not given)
  20%, 1%
> CCCn1nc(C(=O)NCc2nnc3n2CCCCC3)c2ccccc2c1=O
  16%, 11%
> CC1(C)CC(C)(O)N(CCc2ccccc2)C(=S)N1 (stereo not given)
  0%, 33%[activator]
> CC1CCCCN1CCNC(=O)c1cc(=O)[nH]c2ccccc12 (stereo not given)
  4%, -6%
> Oc1ccc2c(c1)OCCOCCOc1cc(O)ccc1OCCO2
  19%, 10%
> CCN(C(=O)c1nn(C)c(=O)c2ccccc12)c1nc2ccccc2s1
  5%, -5%
> CN(Cc1ccccc1)C(=O)N1CCN(C(=O)c2cc(-c3cccc(Cl)c3)n[nH]2)CC1
  -9%, -6%
> CC1CCN(C(=O)CSc2nnc(-c3ccccc3Cl)o2)CC1
  36%[activator], 29%
> O=C1/C(=C/c2ccc(Cl)c(Cl)c2)CCc2ccccc21
  116%[activator], 6%
> CCOC(=O)c1c(NC(=O)COc2cccc(C)c2C)sc(C(C)=O)c1C
  -11%, -6%
> CCCn1nc(C(=O)OCC(=O)Nc2ccc(OCc3ccccc3)cc2)c2ccccc2c1=O
  45%, -7%
> Cc1csc2nc(COC(=O)c3ccccc3NC(=O)c3ccccc3Cl)cc(=O)n12
  u, 102%[activator]
> CCN(CC(=O)NC(C)(C)C)Cc1cccc2cccnc12
  -10%, -4%
> COc1cc(-c2nnc(SCC(=O)N(C(C)C)C(C)C)o2)cc(OC)c1OC
  12%, 3%

More records follow:
Each structure is followed by: 2A firefly, StopGo RLuc
> COC(=O)c1ccc(NC(=O)CCc2ncc(-c3ccccc3)o2)cc1
  21%, 6%
> CC(C)C(C)(C#N)NC(=O)CSc1nnc(-c2cccs2)n1C1CC1 (stereo not given)
  8%, 1%
> Cc1cc2nc(CSCC(=O)Nc3ccccc3)cc(=O)n2o1
  41%[activator], 0%
> CCOc1cc(C(=O)NCC(c2ccc(N(C)C)cc2)N2CCOCC2)cc(OCC)c1OCC (stereo not given)
  -11%, -10%
> Cc1ccc2c(=O)cc(C(=O)N3CCN(C(c4ccccc4)c4ccccc4)CC3)oc2c1
  32%[activator], -17%
> O=C(COc1ncnc2c(Cl)cc(Cl)cc12)N1CCCCC1
  -10%, -13%
> Cc1cccc(N2CCN(C(=O)c3cc4ccc5cccnc5c4[nH]3)CC2C)c1 (stereo not given)
  u, u
> CCOC(=O)c1ccc(NC(=O)c2ncoc2-c2cccc(C)c2)cc1
  133%[activator], 13%
> CCc1ccc(-c2[nH]nc3nc(-c4ccc(OC)cc4)cc(C(=O)NCCCOC)c23)cc1
  -14%, 0%
> O=C(COc1ccc(Cl)cc1)N1CCN(Cc2ccc3c(c2)OCO3)CC1
  -14%[11.5 µM], -5%
> c1ccc2c(NC3CCCC3)ncnc2c1
  u, u
> Cc1ccc(-n2c(SCc3ccccc3)nc3c(=O)[nH]cnc32)cc1
  -8%, -9%
> COc1ccc(Cl)cc1NC(=O)C(CC(C)C)N1Cc2ccccc2C1=O (stereo not given)
  -12%, 58%[activator]
> O=c1[nH]c(CSc2nc3ccccc3o2)nc2ccccc12
  82%[activator], -6%
> CCc1c(C)sc(NC(=O)C2CCC2)c1C#N
  63%[activator], 64%[activator]

Next section.
Each structure is followed by: 2A firefly, StopGo RLuc
> Cc1cc(Br)ccc1NC(=O)c1sc2nc(-c3ccncc3)ccc2c1N
  35%, 5%
> COc1cccc(Nc2nc(-c3cc4cc(Br)ccc4oc3=O)cs2)c1
  7%, 0%
> CCCCN1CC(=O)N2[C@H](C[C@@]3(n4ccc5ccccc54)c4ccccc4N(S(=O)(=O)c4ccccc4)[C@@H]23)C1=O
  -8%, -1%
> CC(C)(C)NC(=O)c1cccc(NC(=O)c2cccnc2)c1
  -11%, -6%
> COc1cccc(C(=O)NCC(c2ccc(N(C)C)cc2)N2CCc3ccccc32)c1 (stereo not given)
  0%, -24%
> CC(=O)N1CCc2c(sc3c2c(=O)n(-c2ccccc2)c(=O)n3CC(=O)Nc2cccc(C)c2)C1
  -10%, 1%
> O=C1CC2(CCCC2)CC(=O)N1CCNCC1COc2ccccc2O1 (stereo not given)
  -10%, -6%
> COc1ccc(CCNC(=O)c2ccc(Cn3c(=O)c4ccccc4n(CC(=O)C(C)(C)C)c3=O)cc2)cc1OC
  -7%, 7%
> C=CCn1c(Oc2ccc(F)cc2)nc2c1c(=O)n(C)c(=O)n2C
  12%, 13%
> CCCCSc1nc2c(c(=O)[nH]c(=O)n2C)n1CC
  7%, -4%
> COc1cc(/C=C/C(=O)c2cc3ccccc3o2)ccc1OC(C)C
  70%[activator], 23%
> CCOC(=O)/C(=C/c1ccc(OC)c(Br)c1)c1nccn1C
  7%, u
> Cc1nc(SCC(=O)Nc2ccc(C(=O)O)cc2)n[nH]1
  -5%, 40%[activator]
> O=C(CCc1ccc(F)cc1)Nc1ccccc1-c1ccccc1
  0%, -1%
> Cc1ccccc1S(=O)(=O)N[C@@H](C)C(=O)NCc1cscn1
  -1%, 1%

Rewritten with bars between the fields: 17 of the compounds above
Molecule | 2A firefly | StopGo RLuc
c1ccc2c(NC3CCCC3)ncnc2c1 | u | u
Cc1ccc(-n2c(SCc3ccccc3)nc3c(=O)[nH]cnc32)cc1 | -8% | -9%
COc1ccc(Cl)cc1NC(=O)C(CC(C)C)N1Cc2ccccc2C1=O (stereo not given) | -12% | 58%[activator]
O=c1[nH]c(CSc2nc3ccccc3o2)nc2ccccc12 | 82%[activator] | -6%
CCc1c(C)sc(NC(=O)C2CCC2)c1C#N | 63%[activator] | 64%[activator]
Cc1cc(Br)ccc1NC(=O)c1sc2nc(-c3ccncc3)ccc2c1N | 35% | 5%
COc1cccc(Nc2nc(-c3cc4cc(Br)ccc4oc3=O)cs2)c1 | 7% | 0%
CCCCN1CC(=O)N2[C@H](C[C@@]3(n4ccc5ccccc54)c4ccccc4N(S(=O)(=O)c4ccccc4)[C@@H]23)C1=O | -8% | -1%
CC(C)(C)NC(=O)c1cccc(NC(=O)c2cccnc2)c1 | -11% | -6%
COc1cccc(C(=O)NCC(c2ccc(N(C)C)cc2)N2CCc3ccccc32)c1 (stereo not given) | 0% | -24%
CC(=O)N1CCc2c(sc3c2c(=O)n(-c2ccccc2)c(=O)n3CC(=O)Nc2cccc(C)c2)C1 | -10% | 1%
O=C1CC2(CCCC2)CC(=O)N1CCNCC1COc2ccccc2O1 (stereo not given) | -10% | -6%
COc1ccc(CCNC(=O)c2ccc(Cn3c(=O)c4ccccc4n(CC(=O)C(C)(C)C)c3=O)cc2)cc1OC | -7% | 7%
C=CCn1c(Oc2ccc(F)cc2)nc2c1c(=O)n(C)c(=O)n2C | 12% | 13%
CCCCSc1nc2c(c(=O)[nH]c(=O)n2C)n1CC | 7% | -4%
COc1cc(/C=C/C(=O)c2cc3ccccc3o2)ccc1OC(C)C | 70%[activator] | 23%
CCOC(=O)/C(=C/c1ccc(OC)c(Br)c1)c1nccn1C | 7% | u

Additional records:
Each structure is followed by: 2A firefly, StopGo RLuc
> O=C(NCCc1ccccn1)c1ccc(Cl)cc1
  16%, 2%
> CCc1ccccc1OCC(=O)OCc1ccc(Cl)cc1
  14%, 13%
> CC(C)CNc1nc(C(=O)Nc2nccs2)cs1
  169%[activator], -10%
> ClC12CC3CC(C1)CC(CN=Cc1cccs1)(C3)C2
  1%, -10%
> O=C(CCNC(=O)c1cnccn1)Nc1ccccc1Cc1ccccc1
  2%, 5%
> O=C(CCC1N=C2c3ccccc3N=C(SCC(=O)NCCc3ccccc3)N2C1=O)NCc1ccc(F)cc1 (stereo not given)
  -17%, -4%
> COCCN(Cc1cc2ccc(C)cc2[nH]c1=O)C(=O)c1cccc(OC)c1
  25%, 28%
